# VDR inh = inhibitors of human vitamin D receptor; Potency, µM, without a hit: max response, negative = inhibition, most hits filed as inhibitors; P11473; hit rate 0.93% among 400,000; VDR-SRC2-3 peptide fluorescence polarization, 2 h; AID 504847; active = well fitted inhibition curve with a large enough effect; inconclusive = small, poorly fitted or top-dose-only effect, or another doubt; inactive = no such curve, though single readings can be large or run the other way; note: series mostly up to about 120 µM
# Target sequence (P11473 whole entry, looked up): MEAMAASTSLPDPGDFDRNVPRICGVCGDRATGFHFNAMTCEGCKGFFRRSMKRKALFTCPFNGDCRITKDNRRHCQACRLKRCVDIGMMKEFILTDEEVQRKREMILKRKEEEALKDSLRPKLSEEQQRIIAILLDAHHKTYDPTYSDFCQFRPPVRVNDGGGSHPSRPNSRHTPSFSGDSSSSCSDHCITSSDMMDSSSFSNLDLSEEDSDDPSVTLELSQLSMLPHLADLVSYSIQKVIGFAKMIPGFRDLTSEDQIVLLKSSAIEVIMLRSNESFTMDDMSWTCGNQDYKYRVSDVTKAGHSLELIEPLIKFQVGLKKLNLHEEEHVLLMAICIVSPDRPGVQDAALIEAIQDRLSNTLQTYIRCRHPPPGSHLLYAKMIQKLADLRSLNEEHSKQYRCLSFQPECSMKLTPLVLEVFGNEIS
#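 Two reagent solutions held at 4 deg C in the dark were dispensed, compounds pinned at 23 nl, and the mixture incubated 2 h at room temperature. Read-out: fluorescence polarization of VDR–SRC2-3 peptide binding.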
# Numbers without * were called inactive; u = inconclusive; & = joins results of further samples; [ ] = dose if it differs, or a comment. % is set by controls: 0 for no effect and ±100 for the full control effect; potency is the fitted concentration of half-maximal effect. Some of the compounds tested. The share of hits here may be higher or lower than overall.
SMILES,VDR inh
Cc1cc(C)n(Cc2ccc(NC(=O)c3c([N+](=O)[O-])c(C)nn3C)cc2)n1,1.6%
CSC1=N/C(=C\c2ccccc2)C(=O)N1C,7.7%
CCOC(=O)c1ccc(NC(=O)c2nc[nH]c2C(=O)N[C@@H](CC(C)C)C(=O)OC(C)(C)C)cc1,6.9%
CC(=O)N1CCN(C2=NC(=O)/C(=C\c3cccs3)S2)CC1,-4.6%
COc1ccc(NC(=O)CN2CCN(CC(=O)Nc3cc(OC)cc(OC)c3)CC2)cc1,-0.1%
CCc1cccc(C)c1NC(=O)C1CCN(S(=O)(=O)c2cc(Br)cc3c2N(C(C)=O)CC3)CC1,4.7%
COCCN1Cc2cccc(C(=O)Nc3ccc(C)c(C)c3)c2C1=O,-10.7%
Cc1ccc(Cn2nc(C)c(NC(=O)CSc3nc4c(c(C(F)(F)F)n3)CCc3ccccc3-4)c2C)cc1,-4.0%
CC(=O)N1CCN(C(=O)c2c(-c3ccccc3)noc2C)CC1,8.3%
CN(C)CCCNC(NC(=O)c1cccs1)C(Cl)(Cl)Cl (stereo not given),13.4%
CC(=O)Nc1ccc2nc(SCCOc3ccc(C)cc3)sc2c1,17.7%
Cn1cccc1/C=C1\SC(=S)N(NC(=O)c2ccccc2O)C1=O,-6.1%
O=C(NC1CC1)C1=C[C@H](c2c[nH]c3ccccc23)C[C@H](OCCCCO)O1,-5.3%
O=C(COC(=O)c1cc([N+](=O)[O-])ccc1NCc1ccccc1)NCc1ccccc1Cl,-8.2%
CCN1C(=O)CC(c2ccccc2)CC1=O,-4.7%
N#CCCn1c(=O)c(-c2ccc(F)cc2)nc2cnc(Oc3ccccc3)nc21,-2.7%
Cc1ccc2nc(Cl)c3cc(C(=O)NCCCN(C)Cc4ccccc4)sc3c2c1,-2.4%
O=C(NCCS(=O)(=O)NCc1ccco1)c1ccccc1,-10.7%
N#CC1=C(N)C(C#N)(C#N)[C@H](c2ccncc2)[C@H]2CC3(CC=C12)OCCO3,-25.3%
CCOC(=O)c1ccc(NC(=O)NCc2ccccc2)cc1,-1.4%
CCc1ccc(NC(=O)C2CC(=O)N=C(N)S2)cc1 (stereo not given),-5.8%
O=C(CSc1nc2ncc(Cl)cc2[nH]1)Nc1ccccc1-c1ccccc1,3.4%
COc1ccc(CN2CCCCC2C)cc1C (stereo not given),0.5%
COc1cccc(C(=O)O/N=C(\N)c2ccc(C)cc2)c1,-2.9%
COc1ccc(N2CCN(Cc3nc4c(c(=O)n(C)c(=O)n4C)n3Cc3ccccc3C)CC2)cc1,14.4%
COc1cccc(CNC(=O)c2ccncc2)c1,5.9%
O=C(Cc1ccc(Cl)cc1)c1c[nH]c(C(=O)NCc2cccnc2)c1,-10.6%
O=C1c2ccccc2C(Nc2ccc(Cl)cn2)N1c1ccccn1 (stereo not given),-11.5%
CCc1ccc2c(c1)C1(C(=O)N2)N2CCCC2C(C(=O)c2ccc3ccccc3c2)C12C(=O)Nc1ccccc12 (stereo not given),-21.4%
CCN(CC)c1ccc(N2C(=O)/C(=C/c3cccs3)SC2=S)cc1,-17.5%
CCOC(=O)c1c(C)n(C)c2ccc(OC(=O)c3ccc(N4C(=O)CCC4=O)cc3)cc12,-1.5%
CC1=C(C(=O)N2CCCC(N3CCN(c4ccccc4C)CC3)C2)OCCO1 (stereo not given),16.6%
Cc1ccc(S(=O)(=O)N[C@H](C(=O)NCC2CCC(C(=O)O)CC2)C(C)C)cc1 (stereo not given in full),-0.9%
O=C1c2ccccc2OC2(C=Cc3ccccc3O2)N1Cc1ccccc1 (stereo not given),3.0%
Cc1ccccc1-c1nnn(CC(=O)Nc2cccc(S(N)(=O)=O)c2)n1,-13.9%
CC(C)(C)C(=O)Nc1ccccc1C(=O)OCC(=O)c1ccc2c(c1)OCCO2,-9.7%
Cc1nn(C(C)C(=O)NCCCc2ccccc2)c(=O)c2cc3occc3n12 (stereo not given),-10.8%
C[C@@H](NC(=O)[C@@H]1Cc2ccccc2CN1)C(=O)NCC1CCCO1 (stereo not given in full),-4.5%
CC(=O)Nc1ccc(-c2sc(Nc3ccccc3)n[n+]2C)cc1,-13.8%
CCCCc1cc(=O)oc2cc(O)ccc12,-2.3%
COC(=O)c1c(NC(=O)CC2SC(N)=NC2=O)sc2c1CCCC2 (stereo not given),2.6%
O=[N+]([O-])c1cc(Br)c(Nc2ccccc2)c([N+](=O)[O-])c1,u
CC(=O)Nc1ccc(S(=O)(=O)Nc2ccc3[nH]c(=O)[nH]c3c2)cc1,-8.0%
COc1ccc([N+](=O)[O-])cc1NC(=S)NC(NC(=O)Cc1ccc(OC)c(OC)c1)C(Cl)(Cl)Cl (stereo not given),-23.2%
Cc1cccc(-c2nnc(SCC#N)n2C)c1,-9.3%
CCOC(=O)NC(=O)CSc1nc2ccccc2[nH]1,2.8%
S=C1N(c2ccccc2)C(c2cccc3ccccc23)N2CCCN12 (stereo not given),-6.8%
C=CCC1(CC=C)CCCN1C(=O)C1CCC(=O)N(CCc2ccc(Cl)cc2)C1 (stereo not given),-18.1%
COCCCNC(=S)Nc1ccc(OC(F)F)cc1C,-11.2%
COc1cccc(/C=N/NC(=O)c2[nH]c(C)c(C(=O)N/N=C/c3cccc(OC)c3)c2C)c1,-8.1%
Cc1cccc(C)c1NC(=O)COC(=O)C1Cc2ccccc2CN1C(=O)c1ccccc1 (stereo not given),-11.4%
COC(=O)c1ccc(COC(=O)c2ccc(CO)cc2)o1,15.3%
CC(NC(=O)c1ccc2c(c1)N(Cc1cccc(F)c1)C(=O)c1ccccc1S2)c1ccccc1 (stereo not given),8.5%
CC(C(=O)NC1C=CS(=O)(=O)C1)N1C(=O)/C(=C/c2cccc(Cl)c2)SC1=S (stereo not given),u
COC(=O)Cn1c(CN2CCN(C(=O)c3ccco3)CC2)nc2c1c(=O)n(C)c(=O)n2C,-12.7%
O=C(CSc1nnc(-c2ccco2)o1)c1ccc([N+](=O)[O-])cc1,-6.0%
CCOc1ccc(CNC(=O)c2ccc3nc(N4CCOCC4)sc3c2)cc1,-9.4%
O=C(O)CCCn1cc(NC(=O)COc2cc(F)ccc2[N+](=O)[O-])cn1,0.4%
COC(=O)[C@]1(C)N[C@H](c2ccc(SC3CCCCC3)cc2)[C@@H]2C(=O)N(C)C(=O)[C@@H]21,-13.4%
COc1ccc(NC(=S)NCc2cccn2C)cc1,-3.8%

# The list goes on.
SMILES,VDR inh
Cn1c(O)c(/C=C2\C=NN=C2c2ccccc2)sc1=S,-10.6%
Cc1cc(C)nc(SCC(=O)Nc2ccc(S(=O)(=O)Nc3onc(C)c3C)cc2)n1,-7.4%
Cc1ccc(C(=O)NC2=NC(c3ccc(C)cc3)CC(=O)N2)cc1 (stereo not given),11.9%
CN(C)c1nnnn1Cc1ccc(Cl)cc1Cl,-3.5%
Cc1nnc(NC(=O)c2nc(S(=O)(=O)Cc3ccccc3C)ncc2Cl)s1,35.5µM*
CCn1c(-c2nn(C)cc2Cl)n[nH]c1=S,1.5%
Cc1ccc(N(CC(=O)NCc2ccccc2)C(=O)CCC(=O)Nc2ccccn2)cc1C,-4.2%
COc1ccc(N2C(=O)CC(N3CCN(S(=O)(=O)c4c(C)cc(C)cc4C)CC3)C2=O)cc1 (stereo not given),6.7%
O=c1nc(N/N=C/c2ccco2)cn[nH]1,-13.6%
Cc1nc(/C(N)=N/OC(=O)c2ccc(Cl)cc2)c(C(F)(F)F)o1,-0.2%
CCCCN(Cc1ccccc1)C(=O)CCN1C(=O)C2C3C=CC(C3)C2C1=O (stereo not given),9.0%
COC(=O)Cn1c(CCS(=O)(=O)c2ccc(C)c(C)c2)nc2ccccc21,2.2%
COC(=O)c1cccnc1-n1c(=O)c2cccnc2n(Cc2ccc([N+](=O)[O-])cc2)c1=O,-7.4%
COc1cc2ccccc2cc1C(=O)N1CCN(c2ccccn2)CC1,1.6%
NS(=O)(=O)c1ccc(N/N=C2/CCCCC2C2CCCCC2)c([N+](=O)[O-])c1 (stereo not given),-15.6%
O=C(NCCSCc1ccccc1)c1ccc(Cl)c(S(=O)(=O)N2CCOCC2)c1,10.8%
CC1CCN(S(=O)(=O)c2ccc3c(c2)N(CC(=O)NCCCN2C(C)CCCC2C)C(=O)CO3)CC1 (stereo not given),6.2%
C[C@@H]1C=C[C@](Cc2ccccc2)(C(=O)O)N1C(=O)c1ccccc1,-29.0%
OC(CN1CCCCC1)Cn1c(C(F)(F)F)nc2ccccc21 (stereo not given),3.0%
COc1ccc(C(=O)OCc2c(-c3cccc(OC)c3)ncc3ccccc23)cc1,-9.9%
COc1cc(CNc2ccc3[nH]c(=O)[nH]c3c2)cc(Br)c1OCc1ccccc1F,-0.1%&10.8%
Cc1cc(C(=O)Nc2ccc([N+](=O)[O-])cn2)cs1,-15.9%
Cc1ccc(CNC(=O)CCCNC(=O)c2ccc(Cl)cc2)n1C,-6.6%
CC1=NN(C(=O)CSCc2ccccc2)C(O)(c2ccccc2)C1 (stereo not given),-8.9%
CCOC(=O)C1C(=O)CC(C)(O)C(C(=O)OCC)C1c1ccc2c(c1)OCO2 (stereo not given),-17.4%
NS(=O)(=O)c1cccc(NC(=O)CCCNC(=O)c2ccc(Cl)cc2)c1,33.7%[activator]
CCOC(=O)c1nc2sc3c(c2c(=O)n1C(C)C(=O)OCC)CCCC3 (stereo not given),-7.0%
Cc1cc(C)c(S(=O)(=O)Cc2ccc(Cl)cc2)c(=O)[nH]1,20.0%
Cc1ccc(C)c(N2CCN(Cc3nnnn3C3CCCCC3)CC2)c1,2.7%
O=C(NNC(=O)c1ccccc1Cl)c1ccc(-n2cncn2)c([N+](=O)[O-])c1,1.4%
CCc1ccc(NC(=O)c2cc(-c3ccc(OC)cc3)on2)cc1,-3.4%
COC(=O)c1scc2c(=O)cc(C(F)(F)F)[nH]c12,-13.8%
O=C(O)C1=CC[C@@H](c2ccc(Cl)cc2)N(S(=O)(=O)c2ccc(Cl)cc2)C1,-28.1%
Cc1cccc(C(=O)NCCNC(=O)c2cnccn2)c1,9.0%
COc1ccc(N2CC(C(=O)NCc3nnnn3-c3ccc(C)c(C)c3)CC2=O)cc1 (stereo not given),2.4%&16.8%
N=c1occ(C(=O)c2cc(F)ccc2O)cc1C(=O)NC1CCCCC1,0.1%
Nc1cc(=O)[nH]c(SCC(=O)Nc2ccc(Br)cc2)n1,5.2%
COc1ccc(CCC(=O)NC2CCC(C)CC2)cc1 (stereo not given),7.5%
O=C(Nc1ccc2nn(-c3ccccc3)nc2c1)c1cc2ccccc2o1,-9.4%
Cc1cccc(OCC(=O)Nc2nnn(C)n2)c1C,-0.3%
COc1ccc(CCNC(=O)C2CCCN(S(=O)(=O)c3ccc(F)cc3)C2)cc1OC (stereo not given),2.2%
CCOc1ccccc1C(=O)NCC(=O)NCC(c1ccco1)N1CCCCC1 (stereo not given),0.1%
CCOc1ccccc1C1C(C(=O)N2CCCCC2)=C(C)Nc2nc3ccccc3n21 (stereo not given),-28.8%
COc1ccccc1NC(c1cccnc1)c1ccc2cccnc2c1O (stereo not given),50.1µM*
CNC(=O)c1ccccc1NC(=O)c1cccc(S(=O)(=O)N2CCCCC2)c1,-12.8%
COc1ccccc1C(=O)OCC(=O)NCCNC(=O)COC(=O)c1ccccc1OC,-2.3%
COc1ccc(C=C2SC(=S)NC2=O)cc1,u
Cc1cc(C)n(CC(O)COc2ccccc2[N+](=O)[O-])n1 (stereo not given),-24.3%
COc1ccc(Cn2nnc3c(=O)[nH]c(C4CCCN(C(=O)c5ccccc5)C4)nc32)cc1 (stereo not given),-14.3%
COc1ccc(-n2nc(C(=O)NCC(=O)NCCN(C)C)c3ccccc3c2=O)cc1,6.9%
O=C(NNC(=O)c1ccc[nH]1)Nc1cc(Cl)cc(Cl)c1,-23.8%
CC(=O)NC(Cc1ccc(F)cc1)C(=O)O (stereo not given),8.9%
COc1cccc(-c2cc(C(=O)N3CCc4ccccc4C3)no2)c1,2.2%
CCCC(=O)N1CCN(c2ccc([N+](=O)[O-])c(NC(C)c3ccccc3)c2)CC1 (stereo not given),-6.2%
CC(=O)NCCC(=O)Nc1nc2ccc(Oc3ccccc3)cc2s1,-17.1%
CC(C)OP(=O)(OC(C)C)C(Nc1ccc(C(=O)O)cc1)c1ccccc1 (stereo not given),6.2%
COC(=O)c1cc(C(=O)Nc2cc(C)ccn2)cc([N+](=O)[O-])c1,21.9%
